Bioassay records: PubChem BioAssay, Broad Institute
Vaccinia inh: blocks a specific stage of Vaccinia orthopoxvirus infection; 89,000 compounds, 0.01% hits; activity change (mCherry), % (no concentration beside the values); Vaccinia-infected cells, mCherry/Venus stage reporter fluorescence; active compounds read low; some inactives read as strong as hits;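 active = mCherry past -33% and 40 or more points under the early reporter, replicates agreeing; inconclusive = past -33% without that gap or agreement; tested in A549 cells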;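 also: scaled between vehicle wells and reference inhibitor wells; 23 nL library stock went into each well; one replicate is shown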
Vaccinia inh Venus: second read-out of Vaccinia inh, no call of its own (marks repeat the call); activity change (Venus), %; measured here: Venus reporter, other viral stage;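 negative = less Venus signal; first of two replicates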
Active calls of the source: *; ? = inconclusive; nt = no result given; & = joins results of further samples. The list is partial; count on the stated rates, not on these rows.

Preview, ten compounds:
SMILES	Vaccinia inh	Vaccinia inh Venus
COC(=O)[C@]1(CCC(=O)OC(C)(C)C)N=C(c2ccc(OCCCO)cc2)O[C@@H]1c1ccccc1N=[N+]=[N-]	-4	7
C[C@@H]1CN([C@@H](C)CO)C(=O)Cc2cc(NC(=O)NC3CCCCC3)ccc2O[C@@H]1CN(C)Cc1ccc(C(=O)O)cc1	10	-1
CC(C)NC(=O)N(C)C[C@@H]1Oc2ccc(NS(=O)(=O)c3cn(C)cn3)cc2C(=O)N([C@@H](C)CO)C[C@@H]1C	20	14
CO[C@H]1CN(C)C(=O)c2cc(NC(=O)Cc3ccccc3)ccc2OC[C@@H](C)N(CC2CC2)C[C@H]1C	20	11
CN1C(=O)c2cc(NC(=O)NCc3ccccc3)ccc2OC[C@@H]2O[C@H](CC(=O)NCC3CCCCC3)CC[C@H]21	-2	7
C[C@H]1CN([C@@H](C)CO)S(=O)(=O)c2ccc(/C=C/c3ccccc3)cc2O[C@H]1CN(C)Cc1ccccc1	?	nt
COc1cccc(CN2CC3(CN(CC4CC4)C3)c3c([nH]c4cc(OC)ccc34)[C@@H]2CO)c1	-8	-5
NCC[C@@H]1CC[C@@H](NS(=O)(=O)Cc2ccccc2)[C@H](CO)O1	-9	5
C[C@@H]1CCCCO[C@H](CN(C)Cc2ccc(Cl)c(Cl)c2)[C@@H](C)CN([C@H](C)CO)C(=O)c2cc(NC(=O)Nc3cccc4ccccc34)ccc2O1	-2	-6
CC(C)NC(=O)N1[C@@H]2Cn3c(cccc3=O)[C@H]1[C@@H](C(=O)N1CCC(Cc3ccccc3)CC1)[C@@H]2CO	18	7

The listing, repeating the preview:
SMILES	Vaccinia inh	Vaccinia inh Venus
COC(=O)[C@]1(CCC(=O)OC(C)(C)C)N=C(c2ccc(OCCCO)cc2)O[C@@H]1c1ccccc1N=[N+]=[N-]	-4	7
C[C@@H]1CN([C@@H](C)CO)C(=O)Cc2cc(NC(=O)NC3CCCCC3)ccc2O[C@@H]1CN(C)Cc1ccc(C(=O)O)cc1	10	-1
CC(C)NC(=O)N(C)C[C@@H]1Oc2ccc(NS(=O)(=O)c3cn(C)cn3)cc2C(=O)N([C@@H](C)CO)C[C@@H]1C	20	14
CO[C@H]1CN(C)C(=O)c2cc(NC(=O)Cc3ccccc3)ccc2OC[C@@H](C)N(CC2CC2)C[C@H]1C	20	11
CN1C(=O)c2cc(NC(=O)NCc3ccccc3)ccc2OC[C@@H]2O[C@H](CC(=O)NCC3CCCCC3)CC[C@H]21	-2	7
C[C@H]1CN([C@@H](C)CO)S(=O)(=O)c2ccc(/C=C/c3ccccc3)cc2O[C@H]1CN(C)Cc1ccccc1	?	nt
COc1cccc(CN2CC3(CN(CC4CC4)C3)c3c([nH]c4cc(OC)ccc34)[C@@H]2CO)c1	-8	-5
NCC[C@@H]1CC[C@@H](NS(=O)(=O)Cc2ccccc2)[C@H](CO)O1	-9	5
C[C@@H]1CCCCO[C@H](CN(C)Cc2ccc(Cl)c(Cl)c2)[C@@H](C)CN([C@H](C)CO)C(=O)c2cc(NC(=O)Nc3cccc4ccccc34)ccc2O1	-2	-6
CC(C)NC(=O)N1[C@@H]2Cn3c(cccc3=O)[C@H]1[C@@H](C(=O)N1CCC(Cc3ccccc3)CC1)[C@@H]2CO	18	7
C[C@@H]1CN([C@@H](C)CO)C(=O)c2cccc(NC(=O)c3nc4ccccc4s3)c2O[C@H]1CN(C)S(=O)(=O)c1ccc(Cl)cc1	-23	-12
CNC[C@H]1Oc2cc(-c3cncnc3)ccc2S(=O)(=O)N([C@@H](C)CO)C[C@@H]1C	0	5
C[C@@H]1CN([C@@H](C)CO)C(=O)c2cccc(NC(=O)CCCCCC(=O)Nc3ccccc3N)c2O[C@@H]1CN(C)S(=O)(=O)c1ccccc1	1	-6
O=C(C[C@H]1C=C[C@H](NC(=O)CN2CCOCC2)[C@@H](CO)O1)NC1CCCCC1	10	4
Cc1noc(C)c1S(=O)(=O)Nc1ccc2c(c1)CC(=O)N([C@H](C)CO)C[C@H](C)[C@H](CN(C)C(=O)NC1CCCCC1)O2	5	6
C[C@@H]1CN([C@H](C)CO)C(=O)c2cc(N(C)C)ccc2O[C@@H]1CN(C)S(=O)(=O)c1ccccc1	3	9
CC(C)[C@@H](CO)NC(=O)[C@H]1[C@@H](c2ccccc2)N(c2ccccc2)O[C@@H]1C	9	8
O=C(C[C@H]1CC[C@H](NC(=O)Cc2ccccn2)[C@H](CO)O1)NCCc1ccccc1	7	-1
COc1ccc2c3c([nH]c2c1)[C@@H](CO)N(Cc1nccs1)CC31CN(C(=O)C2CCCC2)C1	21	16
C[C@H](CO)N1C[C@H](C)[C@@H](CN(C)Cc2ccc(C(F)(F)F)cc2)Oc2ccc(NC(=O)Cn3cnnn3)cc2CC1=O	-6	0
O=C(NCc1ccc(F)cc1)[C@H]1C[C@H]2C(=O)N[C@@H](Cc3ccccc3)C(=O)N2[C@H]1c1ccc(O)cc1	11	1
CCCN1C[C@@H](C)[C@H](OC)CN(C)C(=O)c2ccc(NC(=O)Nc3cccc(F)c3)cc2OC[C@@H]1C	-11	-7
C[C@H]1CN([C@@H](C)CO)S(=O)(=O)c2ccc(/C=C/c3ccccc3)cc2O[C@H]1CN(C)C	?	nt
C[C@H](CO)N1C[C@H](C)[C@@H](CN(C)Cc2ccc(C(F)(F)F)cc2)Oc2ccc(NS(C)(=O)=O)cc2CC1=O	?	nt
CNC[C@H]1OCCCC[C@H](C)Oc2ccc(NS(=O)(=O)c3ccc(OC)cc3)cc2C(=O)N([C@H](C)CO)C[C@@H]1C	12	11
Cc1cc(C(=O)Nc2cccc3c2O[C@H](CN(C)Cc2ccc(C(=O)Nc4ccccc4N)cc2)[C@@H](C)CN([C@H](C)CO)C3=O)n(C)n1	-13	3
CN1C(=O)c2cc(NC(=O)C3CC3)ccc2OC[C@@H]2O[C@H](CC(=O)NCC3CCCCC3)CC[C@@H]21	-5	-8
O=C(c1cccnc1)N1C[C@@H]2[C@H](c3ccccc31)[C@@H](CO)N2C(=O)Nc1ccccc1	9	13
CC(C)NC(=O)Nc1ccc2c(c1)C(=O)N([C@H](C)CO)C[C@@H](C)[C@@H](CN(C)S(=O)(=O)c1cn(C)cn1)O2	21	26
Cc1cccc(S(=O)(=O)N2CC[C@@H]3[C@@H](CO)N(C)c4ccc(-c5ccc(C#N)cc5)cc4[C@@H]32)c1	?	nt
C[C@H](CO)N1C[C@H](C)[C@H](CN(C)S(C)(=O)=O)Oc2c(NC(=O)Nc3ccc(C(F)(F)F)cc3)cccc2C1=O	-11	-8
C[C@H](CO)N1C[C@H](C)[C@@H](CN(C)C(=O)Nc2ccc(C(F)(F)F)cc2)Oc2c(cccc2N(C)C)C1=O	-6	2
O=C(c1cccnc1)N1C[C@@H]2N[C@H](C1)C2c1ccc(-c2cccnc2)cc1 (stereo not given in full)	?	nt
C[C@@H]1CCCCO[C@@H](CN(C)C(=O)NC2CCCCC2)[C@@H](C)CN([C@H](C)CO)C(=O)c2cc(NC(=O)Nc3ccc4c(c3)OCO4)ccc2O1	30	6
C[C@@H]1CN([C@@H](C)CO)C(=O)c2cc(-c3ccc(F)cc3)cnc2O[C@@H]1CN(C)Cc1ccccn1	-4	-1
O=C(C[C@H]1CC[C@@H]2[C@H](COC[C@H](O)CN2Cc2ccc(F)cc2)O1)NCc1ccncn1	13	3
O=C(C[C@H]1CC[C@@H](NC(=O)NC2CCCC2)[C@H](CO)O1)NCc1ccc(F)cc1	10	20
O=S(=O)(NCC[C@H]1CC[C@H](NS(=O)(=O)c2cccc(Cl)c2)[C@@H](CO)O1)c1cccc(F)c1	-34	-21
CNC[C@H]1Oc2ccc(NC(=O)CCN3CCOCC3)cc2C(=O)N([C@@H](C)CO)C[C@H]1C	5	8
O=C(C[C@@H]1C[C@H]2c3cc(NS(=O)(=O)c4ccc(F)cc4)ccc3O[C@H]2[C@@H](CO)O1)NCc1ccccn1	2	0
O=C(C[C@H]1CC[C@@H]2[C@H](COC[C@H](O)CN2Cc2ccc3c(c2)OCO3)O1)Nc1ccccc1	3	2
C[C@@H]1CCCCO[C@@H](CN(C)Cc2ccc(Cl)c(Cl)c2)[C@@H](C)CN([C@H](C)CO)C(=O)c2cc(NC(=O)Nc3ccc(C(F)(F)F)cc3)ccc2O1	1	-8
C[C@@H]1CCCCO[C@@H](CN(C)C(=O)C2CCCCC2)[C@H](C)CN([C@@H](C)CO)C(=O)c2cc(NC(=O)Nc3ccc4c(c3)OCO4)ccc2O1	-28	-23
Cc1ccc(S(=O)(=O)Nc2ccc3c(c2)C(=O)N([C@H](C)CO)C[C@H](C)[C@@H](CN(C)C(=O)Nc2ccc(C(F)(F)F)cc2)OCCCC[C@H](C)O3)cc1	-22	-21
C[C@@H]1CN([C@@H](C)CO)C(=O)c2cc(NS(=O)(=O)c3cn(C)cn3)ccc2O[C@@H](C)CCCCO[C@@H]1CN(C)C(=O)Nc1ccccc1	12	17
O=C(c1ccc(F)cc1)N1CC(=O)N2[C@@H](CO)[C@H](c3ccc(C4=CCCC4)cc3)[C@@H]2C1	20	10
C[C@@H]1CN([C@H](C)CO)C(=O)CCCn2cc(nn2)CO[C@H]1CN(C)S(=O)(=O)c1ccccc1C#N	6	7
Cc1ccc(-c2ccccc2[C@H]2[C@@H](CO)N(C(=O)NC3CCCC3)[C@H]2C#N)cc1	-26	-10
CN1C(=O)c2cc(NS(=O)(=O)c3ccc(F)cc3)ccc2OC[C@@H]2O[C@@H](CC(=O)NCC(F)(F)F)CC[C@@H]21	25	27
C[C@@H]1CCCCO[C@@H](CN(C)C(=O)C2CCCCC2)[C@H](C)CN([C@H](C)CO)C(=O)c2cc(NC(=O)c3ccccc3)ccc2O1	?	nt
Fc1ccc(-c2ccc(C3[C@@H]4CN(Cc5ccccc5)C[C@H]3N4)cc2)cc1 (stereo not given in full)	?	-16
CN1CCN(C(=O)C[C@H]2CC[C@@H]3[C@H](COC[C@H](O)CN3C(=O)C3CCCC3)O2)CC1	7	6
Cc1noc(C)c1NC(=O)Nc1ccc2c(c1)CC(=O)N([C@H](C)CO)C[C@@H](C)[C@H](CN(C)C(=O)Nc1ccc3c(c1)OCO3)O2	-3	3
C[C@H]1CN([C@@H](C)CO)C(=O)c2cc(C#CC3CCCCC3)cnc2O[C@@H]1CN(C)C(=O)C1CCCCC1	?	nt
CCCNC(=O)N1C[C@H](O)COC[C@@H]2O[C@H](CC(=O)NCc3ccc(Cl)c(Cl)c3)CC[C@H]21	-11	-6
C[C@@H]1CN([C@@H](C)CO)C(=O)c2cccc(NC(=O)Nc3ccc(C(F)(F)F)cc3)c2O[C@H]1CN(C)S(=O)(=O)c1cccs1	?	nt
C[C@@H]1CN([C@@H](C)CO)C(=O)c2cccc(NC(=O)C3CC3)c2O[C@@H]1CN(C)C(=O)Nc1ccccc1	5	1
N#C[C@@H]1[C@@H](c2ccc(C#Cc3ccccc3F)cc2)[C@H](CO)N1C(=O)C1CCC1	-32	-27
C[C@H]1CN([C@@H](C)CO)C(=O)c2cccc(NC(=O)C3CC3)c2O[C@H]1CN(C)C(=O)Nc1ccc(F)cc1	8	10
CCCNC(=O)[C@H]1[C@H](CO)[C@H]2Cn3c(cccc3=O)[C@@H]1N2C(=O)C1CCC1	3	0

Further results:
SMILES	Vaccinia inh	Vaccinia inh Venus
C[C@H]1CN([C@@H](C)CO)C(=O)c2cc(NC(=O)CCN3CCOCC3)ccc2O[C@H]1CN(C)C(=O)Nc1ccc(C(F)(F)F)cc1	12	10
N#C[C@H]1[C@@H](c2ccc(C#Cc3cccc(F)c3)cc2)[C@@H](CO)N1C(=O)C1CCC1	-16	-18
CNC[C@@H]1Oc2ccc(NS(=O)(=O)c3ccccc3)cc2C(=O)N([C@@H](C)CO)C[C@H]1C	23	6
CC(C)NC(=O)Nc1ccc2c(c1)C(=O)N([C@@H](C)CO)C[C@@H](C)[C@@H](CN(C)C(=O)Nc1cccc3ccccc13)O2	21	18
O=C(CCN1CCCCC1)NCC[C@H]1CC[C@@H](NC(=O)C2CC2)[C@@H](CO)O1	-1	1
O=C(C[C@@H]1CC[C@H]2[C@@H](COC[C@@H](O)CN2S(=O)(=O)c2ccccc2)O1)N1CCc2ccccc2C1	-1	-7
O=C(C[C@@H]1C[C@@H]2c3cc(NC(=O)C4CCOCC4)ccc3O[C@@H]2[C@@H](CO)O1)NCc1ccc(Cl)cc1	5	1
COc1ccccc1C(=O)Nc1ccc2c(c1)OC[C@H](C)N(C)C[C@H](C)[C@H](OC)CN(C)C2=O	5	16
Cc1noc(C)c1NC(=O)N[C@@H]1CC[C@H](CCNC(=O)C2CC2)O[C@@H]1CO	8	5
C[C@@H]1CN([C@@H](C)CO)C(=O)Cc2cc(NS(C)(=O)=O)ccc2O[C@@H]1CN(C)CC1CC1	24	26
C[C@H](CO)N1C[C@H](C)[C@H](CN(C)S(=O)(=O)c2cccs2)Oc2ccc(NC(=O)Cn3cnnn3)cc2CC1=O	14	12
O=C(Nc1cc(F)ccc1F)N1[C@@H]2CNC[C@H]1C2c1ccc(/C=C/c2ccccc2)cc1 (stereo not given in full)	1&-5	13&5
C[C@@H]1CCCCO[C@H](CN(C)C)[C@@H](C)CN([C@H](C)CO)C(=O)c2cc(NC(=O)c3ccncc3)ccc2O1	9	14
CO[C@@H]1CN(C)C(=O)c2ccc(NS(=O)(=O)c3cccc(Cl)c3)cc2OC[C@@H](C)N(C(=O)Cc2cccnc2)C[C@H]1C	24	21
CN1C(=O)c2cc(NC(=O)c3cccc(F)c3)ccc2OC[C@@H]2O[C@@H](CC(=O)NCC3CC3)CC[C@@H]21	14	3
C[C@@H]1CN([C@@H](C)CO)C(=O)c2cc(NS(=O)(=O)c3ccccc3)ccc2O[C@@H](C)CCCCO[C@H]1CN(C)C(=O)c1ccncc1	20	4
Cc1noc(C)c1NC(=O)N(C)C[C@@H]1Oc2ccc(NS(=O)(=O)c3c(C)noc3C)cc2CC(=O)N([C@H](C)CO)C[C@H]1C	28	15
C[C@H]1CCCCO[C@H](CN(C)C)[C@@H](C)CN([C@@H](C)CO)C(=O)c2cc(NS(=O)(=O)c3ccc(F)cc3)ccc2O1	-2	6
